Source: PubChem
HIV Env fusion: inhibitors of HIV-1 Env-driven cell-cell fusion, primary screen, HeLa-JRFL effector, CEM21 target cells, luciferase; inhibition, % at 12.3 µM; actives 1.1% (n = 360,000); AID 651610, 2012;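 active = mean replicate inhibition score of at least 50 and every replicate individually at or above 50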;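 note: 0% = plate neutral controls and 100% = maraviroc near 300 nM; one replicate is shown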
* = called active by the depositor; [ ] = another dose, or the depositor's remark. An excerpt; the hit share may differ from the screen's.

Molecule	HIV Env fusion
COc1ccccc1C(=O)Nc1ccc2c(c1)C(=O)N(C)C[C@H](OC)[C@@H](C)CN(C)[C@H](C)CO2	-3.1[16.7 µM]
C[C@@H]1CCCCO[C@H](CN(C)Cc2ccncc2)[C@H](C)CN([C@@H](C)CO)C(=O)c2cc(NC(=O)c3ccncc3)ccc2O1	12.1[16.7 µM]
C[C@H](CO)N1C[C@H](C)[C@H](CN(C)C(=O)Nc2ccc(F)cc2)Oc2ccc(NS(=O)(=O)c3ccccc3)cc2C1=O	-19.0[16.7 µM]
Cc1noc(C)c1NC(=O)Nc1ccc2c(c1)C(=O)N(C)[C@H]1CC[C@H](CC(=O)N[C@H]3CCN(Cc4ccccc4)C3)O[C@H]1CO2	-5.9[16.7 µM]
C[C@H](NC(=O)C[C@H]1C[C@H]2c3cc(NC(=O)c4cccnc4)ccc3O[C@H]2[C@H](CO)O1)c1ccccc1	-6.4[16.7 µM]
C[C@@H]1CN([C@@H](C)CO)S(=O)(=O)c2ccc(C3=CCCCC3)cc2O[C@@H]1CN(C)Cc1ccccc1	23.6[16.7 µM]
CO[C@@H]1CC[C@@H]2CCOc3ccc(C#N)cc3C(=O)N(C)[C@H](C)C(=O)N(C)C[C@H]1O2	-11.6[16.7 µM]
CCCN(C)C[C@H]1OCCCC[C@@H](C)Oc2ccc(NC(=O)CCC(F)(F)F)cc2C(=O)N([C@H](C)CO)C[C@@H]1C	-2.2[16.7 µM]
CO[C@@H]1CN(C)C(=O)c2ccc(NS(=O)(=O)c3cn(C)cn3)cc2OC[C@H](C)NC[C@@H]1C	-40.9[16.7 µM]
C[C@H](O)C#Cc1cnc2c(c1)C(=O)N([C@H](C)CO)C[C@H](C)[C@@H](CN(C)CC1CCOCC1)O2	1.7[16.7 µM]
NC(=O)c1ncn2c(=O)n(CCCl)nnc12	20.0
O=C(C[C@@H]1C[C@@H]2c3cc(NC(=O)C4CCOCC4)ccc3O[C@@H]2[C@@H](CO)O1)NCCN1CCCCC1	13.1[16.7 µM]
O=C(C[C@H]1C=C[C@H](NC(=O)c2ccncc2)[C@H](CO)O1)NCC1CC1	3.2[16.7 µM]
CN(C)c1ccc2c(c1)[C@@H]1C[C@H](CC(=O)NCc3ccc(Oc4ccccc4)cc3)O[C@H](CO)[C@@H]1O2	0.5[16.7 µM]
C[n+]1c(-c2ccc(C=NNC(=O)c3ccc(C(=O)NN=Cc4ccc(-c5cn6ccccc6[n+]5C)cc4)cc3)cc2)cn2ccccc21	32.3
COc1cccc(S(=O)(=O)Nc2ccc3c(c2)[C@H]2C[C@@H](CC(=O)NCc4ccc(Cl)cc4)O[C@@H](CO)[C@H]2O3)c1	-29.2[16.7 µM]
C[C@@H]1CN([C@@H](C)CO)C(=O)c2cc(-c3ccc(F)cc3)cnc2O[C@H]1CN(C)C(=O)Cc1ccccn1	14.6[16.7 µM]
CO[C@@H]1CC[C@@H]2CCN(C)C(=O)[C@@H](C)N(C)C(=O)c3cc(C#N)ccc3OC[C@H]1O2	4.0[16.7 µM]
C#CCN(Cc1ccco1)C(=O)c1nnc2c3ccccc3n(S(=O)(=O)c3ccc(C)cc3)c2n1	-16.5
C[C@H](CO)N1C[C@H](C)[C@H](CN(C)Cc2cccnc2)OCc2ccccc2-c2c(n(C)c3ccccc23)C1=O	58.7*[16.7 µM]

Remaining list, next part.
Molecule	HIV Env fusion
COc1ccc(C[C@H]2CCn3cc(nn3)COC[C@H](CC(C)C)NC2=O)cc1	-12.6[16.7 µM]
CC(C)(C)n1nc(C2CC2)c(Br)c1NC(=O)c1ccccc1Cl	-25.4
C[C@@H]1CCCCO[C@@H](CN(C)C(=O)Nc2ccc3c(c2)OCO3)[C@H](C)CN([C@@H](C)CO)C(=O)c2cc(N(C)C)ccc2O1	8.7[16.7 µM]
CCCC(=O)Nc1ccc2c(c1)C(=O)N(C)C[C@@H](OC)[C@H](C)CN(CCC(F)(F)F)[C@@H](C)CO2	7.3[16.7 µM]
C[C@H](CO)N1C[C@H](C)[C@H](CN(C)C(=O)c2ccncc2)Oc2ncc(-c3ccc(C(=O)N(C)C)cc3)cc2C1=O	-0.7[16.7 µM]
CO[C@@H]1CN(C)C(=O)c2cc(NS(C)(=O)=O)ccc2OC[C@H](C)N(Cc2cncnc2)C[C@@H]1C	-1.0[16.7 µM]
CN1C(=O)c2cc(NS(=O)(=O)c3ccc(F)cc3)ccc2OC[C@H]2O[C@@H](CC(=O)Nc3cccc4ccccc34)CC[C@@H]21	-14.5[16.7 µM]
C=CCN1C(=O)c2n[nH]c(COC)c2C1c1ccc(C)cc1 (stereo unspecified)	-15.4
COc1ccc(NC(=O)N(C)C[C@H]2Oc3cc(-c4cccc(C(=O)N(C)C)c4)ccc3S(=O)(=O)N([C@@H](C)CO)C[C@H]2C)cc1	-34.1[16.7 µM]
Cc1noc(C)c1S(=O)(=O)Nc1ccc2c(c1)C(=O)N([C@@H](C)CO)C[C@@H](C)[C@H](CN(C)S(=O)(=O)c1ccc(F)cc1)O2	-1.0[16.7 µM]
COc1cccc(-c2cn(CC[C@@H]3CC[C@@H](NS(=O)(=O)Cc4ccccc4)[C@H](CO)O3)nn2)c1	20.9[16.7 µM]
C[C@H](CO)N1C[C@H](C)[C@@H](CN(C)S(=O)(=O)c2ccc(Cl)cc2)Oc2c(NC(=O)CCCCCC(=O)Nc3ccccc3N)cccc2C1=O	22.9[16.7 µM]
CO[C@H]1CN(C)C(=O)c2cc(NC(=O)C3CCC3)ccc2OC[C@@H](C)N(Cc2ccccn2)C[C@H]1C	2.3[16.7 µM]
COc1ccc2c(c1)[C@@H](NC(=O)C(F)(F)F)[C@@H]1CCCC[C@]21c1ccccc1	-41.0
C[C@@H]1CN([C@@H](C)CO)C(=O)Cc2cc(NC(=O)CCN3CCOCC3)ccc2O[C@@H]1CN(C)Cc1ccc(-c2ccccc2)cc1	-1.3[16.7 µM]
Cc1noc(C)c1NC(=O)Nc1cccc2c1O[C@@H](CN(C)Cc1ccncc1)[C@H](C)CN([C@@H](C)CO)C2=O	-2.9[16.7 µM]
COCCN1Cc2cc(C(=O)OC)c3c(c2C1=O)c1ccccc1n3S(=O)(=O)c1ccc(OC)cc1	33.8
O=C(C[C@@H]1C[C@H]2c3cc(NC(=O)CC4CC4)ccc3O[C@H]2[C@H](CO)O1)NCc1ccc(Cl)cc1	3.6[16.7 µM]
C[C@H]1CN([C@@H](C)CO)C(=O)c2cc(NS(=O)(=O)c3cn(C)cn3)ccc2O[C@@H]1CN(C)C(=O)Nc1ccc(F)cc1	11.3[16.7 µM]
C[C@@H]1CN([C@H](C)CO)C(=O)c2cccc(NC(=O)NC3CCCCC3)c2O[C@@H]1CN(C)Cc1ccc(C(=O)O)cc1	-5.2[16.7 µM]

An excerpt from above in order of their number in HIV Env fusion, descending.
Molecule	HIV Env fusion
COCCN1Cc2cc(C(=O)OC)c3c(c2C1=O)c1ccccc1n3S(=O)(=O)c1ccc(OC)cc1	33.8
CC(C)(C)n1nc(C2CC2)c(Br)c1NC(=O)c1ccccc1Cl	-25.4
COc1ccc2c(c1)[C@@H](NC(=O)C(F)(F)F)[C@@H]1CCCC[C@]21c1ccccc1	-41.0

Carrying on:
Molecule	HIV Env fusion
C[C@H](CO)N1C[C@H](C)[C@H](CN(C)CC2CCCCC2)OCCCC[C@H](C)Oc2ccc(NC(=O)c3ccncc3)cc2C1=O	-17.1[16.7 µM]
CC(C)NC(=O)NCC[C@@H]1CC[C@H](NS(=O)(=O)c2ccc(Oc3ccccc3)cc2)[C@H](CO)O1	15.7[16.7 µM]
S=C1NC[C@H](Cc2ccccc2)N1CC1CCN(CCCC2CCCCC2)CC1	13.4
COc1ccc2c3c(n(C)c2c1)[C@H](CO)N(C(=O)Cc1ccccc1)CC31CCN(C(=O)Cc2ccccc2)CC1	38.8[16.7 µM]
COC(=O)Cc1nnn2c1[C@H](C)[C@H](c1ccccc1[N+](=O)[O-])OCC2	-3.3
COc1cccc(-c2cn(CC[C@H]3CC[C@@H](NS(=O)(=O)Cc4ccccc4)[C@@H](CO)O3)nn2)c1	-17.0[16.7 µM]
O=C(C[C@H]1CC[C@H](NC(=O)CN2CCOCC2)[C@@H](CO)O1)NCc1cccc(F)c1	3.0[16.7 µM]
O=C([C@H]1[C@H](CO)[C@H]2Cn3c(ccc(C4=CCCC4)c3=O)[C@H]2N1CC1CC1)N1CCCCC1	-0.1[16.7 µM]
C[C@@H]1CN([C@@H](C)CO)C(=O)c2c(c3ccccc3n2C)-c2ccccc2CO[C@@H]1CN(C)C(=O)Nc1ccc(F)cc1	19.3[16.7 µM]
C[C@H](CO)N1C[C@H](C)[C@@H](CN(C)C(=O)Nc2ccc(F)cc2)Oc2ccc(NC(=O)Cc3cn(C)c4ccccc34)cc2CC1=O	-0.6[16.7 µM]
C[C@@H]1CN([C@H](C)CO)C(=O)Cc2cc(NC(=O)Cc3ccccc3)ccc2O[C@@H]1CN(C)C(=O)Nc1cccc2ccccc12	1.0[16.7 µM]
O=C1c2ccccc2C(c2nnnn2-c2ccc3c(c2)OCCO3)N1Cc1ccc(F)cc1 (stereo unspecified)	-10.6
CO[C@H]1CN(C)C(=O)c2ccc(NS(C)(=O)=O)cc2OC[C@@H](C)N(CC2CCCCC2)C[C@H]1C	11.6[16.7 µM]
O=C(O)C[C@H]1C=C[C@@H](NC(=O)c2ccccc2F)[C@H](CO)O1	-3.2[16.7 µM]
Cn1cnc(CCNC(=O)C[C@@H]2CC[C@H]3[C@@H](COC[C@@H](O)CN3C(=O)Nc3ccc(C(F)(F)F)cc3)O2)c1	-3.2[16.7 µM]
COc1ccc(NC(=O)N(C)C[C@H]2OCCCC[C@@H](C)Oc3ccc(N(C)C)cc3C(=O)N([C@@H](C)CO)C[C@H]2C)cc1	5.3[16.7 µM]
CO[C@H]1CN(C)C(=O)c2cc(NC(=O)C3CC3)ccc2OC[C@@H](C)N(C(=O)NC(C)C)C[C@H]1C	-15.2[16.7 µM]
C[C@H](CO)N1C[C@H](C)[C@H](CN(C)Cc2ccncc2)Oc2ccc(NC(=O)Nc3ccc4c(c3)OCO4)cc2C1=O	12.0[16.7 µM]
COc1ccc(NC(=O)N(C)C[C@@H]2Oc3c(NC(=O)NC4CCCCC4)cccc3C(=O)N([C@@H](C)CO)C[C@H]2C)cc1	-8.6[16.7 µM]
O=C(C[C@H]1CC[C@@H]2[C@H](COC[C@H](O)CN2C(=O)Nc2ccc(F)cc2)O1)NCCCN1CCOCC1	2.3[16.7 µM]

Grouped by structure: those above with a COOH group (two)
Molecule	HIV Env fusion
C[C@@H]1CN([C@H](C)CO)C(=O)c2cccc(NC(=O)NC3CCCCC3)c2O[C@@H]1CN(C)Cc1ccc(C(=O)O)cc1	-5.2[16.7 µM]
O=C(O)C[C@H]1C=C[C@@H](NC(=O)c2ccccc2F)[C@H](CO)O1	-3.2[16.7 µM]

Following part:
Molecule	HIV Env fusion
O=C(Cc1c[nH]c2ccccc12)Nc1ccc(Nc2cccnc2)c(-c2cc(F)cc(F)c2)c1	11.7
Nc1[nH]c(C(=O)c2ccc(Br)cc2)c(-c2ccccn2)c1C(=O)NCCc1c[nH]c2ccccc12	4.9
C[C@@H]1CN([C@H](C)CO)C(=O)Cc2cc(NS(=O)(=O)c3ccc(Cl)cc3)ccc2O[C@@H]1CN(C)C(=O)Nc1ccc2c(c1)OCO2	12.1[16.7 µM]
COc1ccc(S(=O)(=O)N(C)C[C@@H]2OCCCC[C@@H](C)Oc3ccc(NS(=O)(=O)c4cn(C)cn4)cc3C(=O)N([C@@H](C)CO)C[C@H]2C)cc1	0.8[16.7 µM]
O=C([C@H]1[C@H](CO)[C@H]2Cn3c(cccc3=O)[C@@H]1N2S(=O)(=O)c1ccccc1F)N1CCOCC1	10.0[16.7 µM]
O=C(NCC[C@@H]1CC[C@@H](NS(=O)(=O)Cc2ccccc2)[C@H](CO)O1)C1CCC1	2.5[16.7 µM]
CC(C)(C)S(=O)N1Cc2cc(C(=O)NCc3ccc4c(c3)OCO4)nc(-c3cccc(C#CCC4CCCC4)c3)c2[C@H]1CCO (stereo partly specified)	10.8[16.7 µM]
C[C@@H]1CN([C@@H](C)CO)S(=O)(=O)c2ccc(C3=CCCCC3)cc2O[C@H]1CN(C)C	28.3[16.7 µM]
CC(=O)N(C)C[C@H]1OCc2ccccc2-c2ccccc2C(=O)N([C@H](C)CO)C[C@H]1C	-1.1[16.7 µM]
O=C(C[C@H]1C[C@@H]2c3cc(NC(=O)Cc4ccncc4)ccc3O[C@@H]2[C@H](CO)O1)NCCN1CCCCC1	7.4[16.7 µM]
C[C@H](CO)N1C[C@H](C)[C@H](CN(C)C(=O)Nc2ccnc(N3CCOCC3)c2)OCc2ccccc2-c2ccccc2C1=O	0.4[16.7 µM]
CO[C@@H]1CN(C)C(=O)c2ccc(NC(=O)c3ccc(F)cc3)cc2OC[C@H](C)N(C(=O)CC2CC2)C[C@H]1C	2.8[16.7 µM]
O=S1(=O)N[C@@H](Cc2ccccc2)COc2cccc(NCCO)c21	-0.4
CO[C@@H]1CN(C)C(=O)c2ccc(NC(=O)c3ccccc3F)cc2OC[C@@H](C)N(C)C[C@@H]1C	-5.8[16.7 µM]
COc1cccc(S(=O)(=O)N2C[C@H](O)COC[C@@H]3O[C@@H](CC(=O)Nc4ccccc4)CC[C@H]32)c1	-11.4[16.7 µM]
Cc1ccccc1S(=O)(=O)Nc1ccc2c(c1)C(=O)N(C)[C@@H]1CC[C@@H](CC(=O)O)O[C@H]1CO2	-6.2[16.7 µM]
CO[C@H]1CN(C)C(=O)c2ccc(NS(=O)(=O)c3ccccc3)cc2OC[C@@H](C)N(Cc2cccnc2)C[C@@H]1C	-1.6[16.7 µM]
CO[C@@H](CN(C)S(=O)(=O)c1ccc(F)cc1)[C@@H](C)CN(C(=O)Nc1ccccc1F)[C@@H](C)CO	-5.3[16.7 µM]

HIV Env fusion, hit marks shown above
Molecule	HIV Env fusion
C[C@H](CO)N1C[C@H](C)[C@H](CN(C)Cc2cccnc2)OCc2ccccc2-c2c(n(C)c3ccccc23)C1=O	58.7*[16.7 µM]
